GIRK2 activ – activators of human GIRK2 potassium channels | HEK293-GIRK2 thallium flux, Thallos fluorescence | calls only for hits at 25 µM | actives 0.05% (n = 63,000);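 active means among the strongest 0.2% of first-round signals and kept after retests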;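 further: first round at about 10 µM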
Target sequence (P48051 whole entry, looked up): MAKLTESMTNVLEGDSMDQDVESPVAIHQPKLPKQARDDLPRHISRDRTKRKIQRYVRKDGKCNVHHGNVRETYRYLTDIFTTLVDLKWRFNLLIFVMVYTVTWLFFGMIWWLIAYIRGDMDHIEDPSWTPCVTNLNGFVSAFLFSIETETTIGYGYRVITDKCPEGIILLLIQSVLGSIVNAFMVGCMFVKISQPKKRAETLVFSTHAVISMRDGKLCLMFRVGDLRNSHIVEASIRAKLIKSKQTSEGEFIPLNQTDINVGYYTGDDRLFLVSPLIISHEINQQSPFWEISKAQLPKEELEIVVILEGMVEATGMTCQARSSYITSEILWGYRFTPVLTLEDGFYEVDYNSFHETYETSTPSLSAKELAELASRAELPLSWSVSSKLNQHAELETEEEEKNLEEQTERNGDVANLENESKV
Calls only; i = inactive.

SMILES	GIRK2 activ
CCOCCCNS(=O)(=O)c1cc(Cl)c(C)cc1OCC	i
Cc1ccc(NC(=O)C23CC4CC(CC(C4)C2)C3)c(C)c1	i
O=C1NC(=S)N(S(=O)(=O)c2c(Cl)cccc2Cl)C1Cc1ccccc1 (centres undefined)	i
COc1ccc(S(=O)(=O)N(C)C2CCCCC2)cc1C(C)(C)C	i
CCOc1ccc(C(=O)Nc2sc3c(c2-c2nc4ccccc4s2)CCN(CC)C3)cc1	i
COC(=O)N1CCC(CNC(=O)CCSc2ccccc2)CC1	i
COc1ccc(-c2nc(CNS(=O)(=O)c3ccc(Cl)s3)cs2)cc1	i
Cc1cc(C)c(S(=O)(=O)NCC2CCN(S(=O)(=O)c3cccnc3)CC2)cc1C	i
CCCn1c(-n2nc(C)cc2C)nc2c1c(=O)n(CC(=O)OC)c(=O)n2C	i
O=C(NCc1ccc2c(c1)OCO2)C(=O)NCC(O)c1ccc2c(c1)CCO2 (centres undefined)	i
Cc1ccc(CNC(=O)c2sccc2N(C)S(=O)(=O)c2ccccc2)cc1	i
O=S(=O)(c1cc(F)cc(F)c1)N1CC(Oc2nc3c(F)cccc3s2)C1	i
CCCS(=O)(=O)c1ccc(N2CCC(Cc3ccccc3)CC2)nn1	i
O=C(/C=C/c1ccc2c(c1)OCO2)N1CCC(Oc2cccnc2)CC1	i
COc1ccc(C(=O)NCCc2ccc3c(c2)CCCN3C)cc1	i
COc1ccc(CN2C(=O)N(c3ccccc3OC)S(=O)(=O)c3ccccc32)cc1F	i
Cc1ccc(S(=O)(=O)N2CCCc3cc(NC(=O)Oc4ccccc4)ccc32)cc1	i
COC(=O)c1ccc(C(=O)NCCn2nc(C)cc2C)cc1	i
O=C1/C(=C/c2ccccc2O)Oc2ccc(O)cc21	i
CCc1ccc(S(=O)(=O)NCC2(c3cccs3)CCOCC2)s1	i
CSc1ncc(Cl)c(C(=O)Nc2cc(F)ccc2F)n1	i
COc1ccc2sc(OC3CCN(C(=O)c4cc5cccc(OC)c5o4)CC3)nc2c1	i
CCOc1ccccc1C(=O)Nc1nc2nc(C)cc(C)c2s1	i
COc1ccc(/C=C/C(=O)Nc2cccc3cnccc23)cc1OC	i
CCOc1cc(C(=O)Nc2cc(=O)n(C)c(=O)n2C)cc(OCC)c1OCC	i

More compounds follow:
SMILES	GIRK2 activ
O=S(=O)(Nc1cnc(N2CCN(c3ccccn3)CC2)nc1)c1cccs1	i
Cn1c(CN2CCN(C(=O)C3(c4cccs4)CCCC3)CC2)nc2ccccc21	i
Cc1c(Cl)cccc1NC(=O)c1cc2n(n1)CCCO2	i
C/C=C/Cn1c(N2CCOCC2)nc2c1c(=O)[nH]c(=O)n2C	i
Cc1ccc(S(=O)(=O)NCc2cc(-c3ccco3)n(C)n2)cc1C	i
O=C(Nc1ccccc1-c1cn2c(CN3CCNCC3)csc2n1)c1cnc2ccccc2n1	i
CCOC([O-])=NC1C[N+](N2CCOCC2)=NO1 (centres undefined)	i
COc1ccc(NC(=O)C(=O)NCC(O)c2ccoc2)c(OC)c1 (centres undefined)	i
C=CCn1c(=NC(=O)CSC(C)=O)sc2ccccc21	i
Cc1cccc(NC(=O)CN2CC(c3nc(C4CC4)no3)C2)c1C	i
COc1ccccc1C(=O)CC1OC(=O)c2c1ccc(OC)c2OC (centres undefined)	i
CCOc1ccc(S(=O)(=O)NCC(O)(c2ccccc2)C2CC2)cc1F (centres undefined)	i
COc1ccc(-c2[nH]ncc2-c2nc(-c3ccc(C)c(C)c3)no2)cc1OC	i
COC(=O)c1ccc(NC(=O)Cn2ccn3nc(-c4ccc(OC)cc4)cc3c2=O)cc1	i
CCCCCC(O)/C=C/C1C(O)CC(O)C1CCCCC(CC(=O)O)OC (centres undefined)	i
Cc1cccc(NC(=O)Cn2cc(-c3nc(-c4ccc(Cl)cc4)no3)ccc2=O)c1	i
Cc1ccc(-c2csc3nnc(SCC(=O)N4CCOCC4)n23)cc1	i
N#Cc1ccc(C(=O)NC2CCN(C(=O)c3cn(-c4ccc(Cl)cc4)nn3)CC2)cc1	i
O=C(c1ccccc1Br)N1CCC(Oc2cnccn2)CC1	i
Cc1ccc(N2CCN(CC(=O)NC3CCSC3=O)C2=O)cc1 (centres undefined)	i
COc1cccc(S(=O)(=O)N2CCN(c3nc(N4CCOCC4)nc(-n4ccnc4)n3)CC2)c1	i
CCOc1ccc(C(=O)Nc2ccc3c(c2)N(C(=O)CC)CCC3)cc1OCC	i
Cc1nnc(C2CCCN(C(=O)C3(c4ccccc4)CCOCC3)C2)s1 (centres undefined)	i
Cc1noc(CNC(=O)C2CCN(C(=O)c3cc(-c4ccco4)[nH]n3)CC2)n1	i
CC1CCCN(C(=O)c2snc3c(=O)n(Cc4ccccc4)c(=O)[nH]c23)C1 (centres undefined)	i

The list goes on:
SMILES	GIRK2 activ
CS(=O)(=O)N1CCC(C(=O)Nc2ccccc2NC(=O)c2cccc(Cl)c2)CC1	i
CCOc1coc(C(=O)NCCCc2ccccc2)cc1=O	i
Cc1cc(O)c(NC(=O)c2ccc(-c3ccc(Cl)cc3)o2)cc1C	i
CC(C)(C)Sc1ccc2nn(CC(=O)Nc3ccc(F)cc3Cl)c(=O)n2n1	i
Cc1ccc(C(=O)NCCCN2CCN(c3ccccc3)CC2)cc1	i
Cc1cccc(COc2cccc(N3CCn4c3nc3c4c(=O)n(C)c(=O)n3C)c2)c1	i
O=C(NCC1(c2ccccc2)CCOCC1)NC12CC3CC(CC(C3)C1)C2	i
O=C(Nc1ccc(-c2ccn[nH]2)cc1)c1ccccc1Cl	i
NC(=O)c1ccc(NC(=O)Cn2nc(-c3cccs3)c3sc(N4CCCCC4)nc3c2=O)cc1	i
COc1cccc(-c2c(NC(=O)c3ccco3)oc3ccccc3c2=O)c1	i
CCOC(=O)c1cnn2ccc(NC(=O)c3ccccc3Cl)cc12	i
CC(=O)SCC(=O)N=c1sc2ccccc2n1C	i
CSc1nc2n(n1)C(c1ccc(C)o1)C(C(=O)Nc1ccccc1C)=C(C)N2 (centres undefined)	i
Cc1nc(C)c(-c2nnc(NC(=O)/C=C/c3cccs3)o2)s1	i
Cc1ccc(-c2cc3c(=O)n(Cc4nc(-c5ccc(OC(C)C)cc5)no4)ncn3n2)c(C)c1	i
CC(NC(=O)C1CCC(Cn2c(=O)[nH]c3ccsc3c2=O)CC1)c1ccc2c(c1)OCCO2 (centres undefined)	i
Cc1ccccc1-n1ncc2c1ncn1c(C3CCCCC3)nnc21	i
O=C(/C=C/c1ccc2c(c1)OCO2)N(Cc1ccoc1)Cc1cccs1	i
Cn1c(C(F)(F)F)nn(CCNC(=O)Cn2cnc3ccccc3c2=O)c1=O	i
COc1ccc(N2C(=O)C3N=NN(Cc4c(F)cccc4Cl)C3C2=O)cc1 (centres undefined)	i
NC(=O)c1ccc(NC(=O)CN2CC(c3nc(Cc4ccccc4)no3)C2)cc1	i
COc1ccc(OC)c(COCC(O)CN2CCN(c3ccccc3OC)CC2)c1 (centres undefined)	i
C=CCOc1ccccc1CN1C(=O)C(O)(CC(C)=O)c2cc(Br)ccc21 (centres undefined)	i
O=C(NCc1ccccc1)Nc1ccc2c(c1)CCC(=O)N2Cc1ccccc1	i
COc1ncc(NC(=O)c2cccc(Oc3ccc(C)nn3)c2)cn1	i

Part of the list above in another layout.
GIRK2 activ,smiles
i,Cc1nc(C)c(-c2nnc(NC(=O)/C=C/c3cccs3)o2)s1
i,CSc1nc2n(n1)C(c1ccc(C)o1)C(C(=O)Nc1ccccc1C)=C(C)N2 (centres undefined)
i,CC(NC(=O)C1CCC(Cn2c(=O)[nH]c3ccsc3c2=O)CC1)c1ccc2c(c1)OCCO2 (centres undefined)
i,CC(=O)SCC(=O)N=c1sc2ccccc2n1C
i,C=CCOc1ccccc1CN1C(=O)C(O)(CC(C)=O)c2cc(Br)ccc21 (centres undefined)
i,Cc1cc(O)c(NC(=O)c2ccc(-c3ccc(Cl)cc3)o2)cc1C
i,CCOC(=O)c1cnn2ccc(NC(=O)c3ccccc3Cl)cc12

The list goes on:
SMILES	GIRK2 activ
Cn1nc(-c2ccccc2)cc1C(=O)NCCn1ncccc1=O	i
COc1cc(C(=O)NCCn2ncccc2=O)cc(OC)c1OC	i
O=C(NCC1COC2(CCCC2)O1)Nc1ccccc1C(F)(F)F (centres undefined)	i
COc1ccc(C(=O)NCC2CCN(Cc3ccccc3)CC2)cc1	i
Cc1cc(OCC(=O)Nc2ccc(Cl)cc2F)nc(-c2ccc(F)cc2)n1	i
COc1cccc(-n2c(=S)sc3c(=O)[nH]c(SCC(=O)Nc4ccc(C)c(F)c4)nc32)c1	i
COCCOC(=O)c1c(C)n(C)c2ccc(OC(=O)c3cccs3)cc12	i
O=C(NC1CCCCCCC1)C1CCN(c2cc(Oc3ccccc3)ncn2)CC1	i
COc1ccc(OC)c(-c2csc(-c3nnn(-c4cccc(Cl)c4)c3N)n2)c1	i
COc1ccc(CNC(=O)CSc2nccn2-c2ccc(C(=O)NCc3cccs3)cc2)cc1	i
O=S(=O)(Nc1ccccc1F)c1ccc(F)c(Cl)c1	i
CCOc1ccc(N2C(=O)/C(=C/c3ccc4c(c3)OCO4)SC2=S)cc1	i
Cc1nc2c(c(=O)n1CC(=O)NCCCc1ccccc1)CN(Cc1ccccc1)CC2	i
Cc1cc(S(=O)(=O)Oc2ccc3c(c2)ncn3C)c(Cl)cc1Cl	i
O=c1[nH]c(N2CCc3ccccc3C2)nc2c(-c3cccc(Cl)c3)csc12	i
Cc1ccccc1-c1ccc(N2CCN(C(=O)Nc3ccc(F)cc3)CC2)nn1	i
O=C(CSc1nc(-c2ccccc2)c2cc(Cl)ccc2n1)N1CCOCC1	i
O=C(NCC(O)c1ccoc1)C(=O)Nc1ccccc1Cl (centres undefined)	i
Cc1nnc(CNC(=O)Cc2csc(Nc3ncccn3)n2)o1	i
COc1ccccc1C1(CNC(=O)c2snnc2C)CCOCC1	i
CCC(C)NC(=O)CCn1c(=O)c2ccccc2n2c(SCC(=O)Nc3ccccc3C)nnc12 (centres undefined)	i
O=C(Nc1nnc(-c2cccs2)o1)c1ccc(Oc2ccccc2)cc1	i
CCN(c1ccsc1C(=O)N1CCC2(CC1)OCCO2)S(=O)(=O)c1ccccc1	i
O=C(Cn1cccc(S(=O)(=O)N2CCCCCC2)c1=O)Nc1ccc(F)cc1Cl	i
CCOc1ccccc1C(=O)Nc1cccc(-n2c(C)nc3ccccc3c2=O)c1	i

More compounds
SMILES	GIRK2 activ
Cc1c(-c2ccc(Cl)cc2)nn2c1NC(=O)C2CC(=O)Nc1cccc(C(=O)O)c1 (centres undefined)	i
Cc1cc(=O)n2c(-c3ccc(NS(C)(=O)=O)cc3)csc2n1	i
O=C(NC1CCN(C(=O)c2cn(-c3ccc(Cl)cc3)nn2)CC1)c1ccccc1F	i
O=C(c1ccc(=O)[nH]c1)N1CCN(Cc2nc3ccccc3n2Cc2ccccc2)CC1	i
CCC(=O)N1CCCc2cc(NC(=O)c3cc(OC)cc(OC)c3)ccc21	i
Cc1cc(NC(=O)C2CCCN(c3ccc(-c4ccc(Cl)cc4)nn3)C2)on1 (centres undefined)	i
COC(=O)CN1CCN(c2nc3c(c(=O)[nH]c(=O)n3C)n2CCc2ccccc2)CC1	i
O=C(Nc1ccc(-n2cnnn2)cc1)c1csc(Nc2ccccc2)n1	i
COC(=O)c1ccc(C2C(S(=O)(=O)c3ccc(C)cc3)=C(O)C(=O)N2c2ccc(OC)cc2)cc1 (centres undefined)	i
Cc1cc(NC(=O)C(=O)NCC2CCN(Cc3ccco3)CC2)no1	i
Cc1ccc(NC(=O)Cc2ccc(-c3ccccc3)cc2)cc1N1CCCC1=O	i
COc1ccc(OC)c(-c2cc(C(=O)NCC(c3ccccc3Cl)N(C)C)n(C)n2)c1 (centres undefined)	i
Cc1cc(C)n(CCNC(=O)c2ccccc2C(F)(F)F)n1	i
CCCc1ccc(C(=O)N2CCC(c3ccc(C(=O)OC)cc3)CC2)cc1	i
CN1C(=O)C2C(C1=O)N1C(c3ccco3)C3C(=O)N(C)C(=O)C3N1C2c1ccco1 (centres undefined)	i
Cc1ccc(S(=O)(=O)Nc2ccc3c(c2)CCCN3C(=O)c2ccccc2)c(C)c1	i
CCOc1ccc(S(=O)(=O)N(Cc2ccoc2)Cc2cccs2)cc1C	i
O=C(Cc1ccc(F)cc1)N1CCC(CSc2ccccn2)CC1	i
COC(=O)c1ccc(NC(=O)Cc2c(C)nc(SCc3cccc(OC)c3)[nH]c2=O)cc1	i
O=C1Nc2ccccc2Oc2ccc(NC(=O)C3(c4ccc(F)cc4)CC3)cc21	i
COc1nn(C)cc1C(=O)N1CCc2nc(NC(=O)c3ccco3)sc2C1	i
CCOc1ccc(-c2ccc(=O)n(Cc3nc(-c4cccs4)no3)n2)cc1	i
O=S(=O)(NCC1CCCO1)C1CC1 (centres undefined)	i
COc1ccccc1CNC(=O)Cn1nc(C(=O)N2CCOCC2)cc1-c1cccs1	i
CCOc1cccc(-c2noc(Cn3nc4cc(-c5nc(C)no5)ccn4c3=O)n2)c1	i

Remaining list, next part
SMILES	GIRK2 activ
Cc1cc(NC(=O)c2cccc([N+](=O)[O-])c2C)n(-c2nc(-c3ccc4c(c3)OCO4)cs2)n1	i
CC(C)(C)c1ccc(C(=O)Nc2c3c(nn2CC(=O)NCc2ccco2)CSC3)cc1	i
Cc1cc(O)c2c(CN3CCN(c4cccc(Cl)c4)CC3)cc(=O)oc2c1	i
COc1ccc(CCS(=O)(=O)NCC2(CO)CC2)cc1	i
COc1ccc(CCS(=O)(=O)N(CCc2cccs2)Cc2cccnc2)cc1	i
CCCN(CCC)CC(O)COc1ccc(C(=O)CC)cc1 (centres undefined)	i

Pulled one by one from the entries so far, six records:
SMILES	GIRK2 activ
Cc1ccc(NC(=O)C23CC4CC(CC(C4)C2)C3)c(C)c1	i
COc1ccccc1C1(CNC(=O)c2snnc2C)CCOCC1	i
CCCn1c(-n2nc(C)cc2C)nc2c1c(=O)n(CC(=O)OC)c(=O)n2C	i
CCOc1ccc(S(=O)(=O)NCC(O)(c2ccccc2)C2CC2)cc1F (centres undefined)	i
O=C(NCc1ccccc1)Nc1ccc2c(c1)CCC(=O)N2Cc1ccccc1	i
Cc1cc(C)c(S(=O)(=O)NCC2CCN(S(=O)(=O)c3cccnc3)CC2)cc1C	i

An excerpt from above in order of formula weight, ascending.
SMILES	GIRK2 activ
Cc1cc(O)c(NC(=O)c2ccc(-c3ccc(Cl)cc3)o2)cc1C	i
O=C(/C=C/c1ccc2c(c1)OCO2)N1CCC(Oc2cccnc2)CC1	i
COc1ccc(OC)c(COCC(O)CN2CCN(c3ccccc3OC)CC2)c1 (centres undefined)	i

Source: PubChem (Vanderbilt University)

These rows are one share of the data. The share of hits here may be higher or lower than overall.
